miR-21 reporter: raises the signal of a miR-21 reporter; HeLa miR-21 FLuc reporter, luciferase, 48 h; Potency, µM (top dose mostly 38.3 µM), without a hit: at the top dose reporter change, positive = more light; 340,000 tested, under 10 active; active = well fitted rising curve with a large enough effect; inconclusive = small, poorly fitted or top-dose-only effect; inactive = no such curve, though single readings can be large or run the other way;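 further: % of control where 0% means no effect; miR-21 action dims this reporter so a rising signal means less miR-21 action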
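HeLa cells stably expressing CMV-driven firefly luciferase with a downstream miR-21 binding sequence, endogenously expressing miR-21, were treated with titrations (up to about 40uM final) for 48 hours at 37 degree Celsius. Luciferase luminescence was read after lysis.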
GLA inh pH 4.5: blocks human alpha-galactosidase A at pH 4.5 | purified enzyme, 4-MU-alpha-Gal fluorescence, pH 4.5 | activity change, negative = inhibition, % at 105 µM | 230,000 tested, under 10 active | AID 1467 | P06280; inconclusive = small, poorly fitted or top-dose-only inhibition, or a rising curve; inactive = flat fitted curve, though single readings scatter; no compound was filed as active;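 further: 0% = full activity with enzyme and -100% = basal without enzyme; dose as in the result columns while the protocol names 77 µM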
Target sequence (P06280 whole entry, looked up): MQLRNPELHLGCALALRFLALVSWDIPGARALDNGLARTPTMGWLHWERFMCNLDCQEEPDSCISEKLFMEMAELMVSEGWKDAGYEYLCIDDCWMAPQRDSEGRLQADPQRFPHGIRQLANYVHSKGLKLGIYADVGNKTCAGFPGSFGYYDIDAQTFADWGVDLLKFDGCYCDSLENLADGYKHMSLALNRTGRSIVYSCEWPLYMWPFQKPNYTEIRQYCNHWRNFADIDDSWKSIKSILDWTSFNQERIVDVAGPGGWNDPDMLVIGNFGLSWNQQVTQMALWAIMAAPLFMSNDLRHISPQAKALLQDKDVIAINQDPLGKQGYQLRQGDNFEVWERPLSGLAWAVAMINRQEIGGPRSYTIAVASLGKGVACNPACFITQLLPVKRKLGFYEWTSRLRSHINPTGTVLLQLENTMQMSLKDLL
Rango release inh: inhibitors of RanGTP-induced Rango-importin beta complex dissociation. Biochemical FRET Rango-importin beta, RanGTP-induced dissociation. Potency, µM (highest dose often 46.1 µM), without a hit: at the highest dose activity change, negative = inhibition. 340,000 tested, 0.071% active. AID 540253. O95149+P62826; active means falling FRET ratio curve, often poorly fitted, with flat reads before Ran was added; inconclusive means other falling curves, or compound fluorescence or quenching; inactive means flat or rising ratio curve;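 further: potency means the concentration at half of the fitted maximal effect; % of control where 0% means no effect; nearly all actives have a fitted effect of over 45% in size; -100% = wells without RanGTP and RCC1; the record marks most hits as doubtful in a second field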
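Two FRET readings bracket the reaction: one 5 min after compound meets Rango–importin beta, another 45 min after RanGTP-RCC1 (0.6 uM Ran, 0.2 uM RCC1, 2 mM GTP) is added. Only the second defines inhibition.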
Rango-impB inh: Rango-importin beta binding inhibition. Q14974. AID 540263. Potency, µM (titrated, usually from 92.2 µM), for inactives: at the highest dose inhibition of complex formation. Rango CFP/YFP FRET sensor + importin beta, 45 min. 340,000 tested, 0.031% active; active = rising FRET ratio curve, often small or poorly fitted; inconclusive = mostly compound fluorescence or quenching in the first reads; inactive = flat curves in all reads;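 further: potency means the concentration at half of the fitted maximal effect; 0% = DMSO wells and 100% = buffer wells lacking importin beta; nearly all actives have a fitted effect of over 15% in size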
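FRET biosensor Rango (snurportin 1 IBB between N-terminal EYFP and C-terminal Cerulean), 50 nM in PBS/1 mM DTT/0.02% Tween-20/0.1% BSA, preincubated 5 min RT with compound; 0.125 microM importin beta added, 45 min RT, CFP/YFP FRET ratio read.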
* = called active by the depositor; ? = inconclusive; nt = no result given; & = joins results of further samples.

Order of values – miR-21 reporter | GLA inh pH 4.5 | Rango release inh | Rango-impB inh
COC(=O)[C@H](Cc1ccc(O)cc1)NCCCn1cnc(C(=O)Nc2ccc(C)c(C)c2)n1
  nt | nt | 2% | -0.1%
O=C(NN1C(=O)c2ccccc2NC1c1ccc([N+](=O)[O-])o1)c1ccc([N+](=O)[O-])cc1 (stereo not given)
  18% | -1 | -7% | ?
O=C(Nc1ccc2c(c1)CCC2)c1cccc(F)c1
  -61% | -6 | 2% | 0.8%
S=c1[nH]nc(-c2ccccn2)n1/N=C/c1ccccc1
  -3% | -8 | 1% | -0.2%
CC(=O)CSc1nnc(-c2cnccn2)n1-c1ccccc1
  -6% | 4 | -3% | -0.2%
Cc1nc(-c2ccccc2)nc2n[nH]c(N)c12
  nt | nt | -2% | 4.1%
O=[N+]([O-])c1cccc2cnccc12
  nt | nt | -1% | 0.0%
COc1cccc(Nc2nc3ccccc3n3cnnc23)c1
  -39% | -11 | -13% | ?
COc1ccc(S(=O)(=O)Nc2cccc3c2O[C@H](CN(C)CC2CC2)[C@@H](C)CN([C@H](C)CO)C3=O)cc1
  nt | nt | -16% | 1.8%
COc1ccccc1C(=O)NC(=S)Nc1cccnc1Cl
  14% | nt | 3% | -1.6%

Order of values – miR-21 reporter | GLA inh pH 4.5 | Rango release inh | Rango-impB inh
COc1ccccc1C(=O)NCCn1ccc2ccccc21
  -40% | -18 | -3% | 1.7%
Nc1nc(CCl)nc(Nc2ccccc2)n1
  18% | -2 | 6% | -5.4%
O=C(/C=C/c1ccc([N+](=O)[O-])cc1)NCCSc1ccccc1
  1% | -12 | 18% | -0.2%
O=C(c1cc(-c2cccs2)nc2ccccc12)N1CCN(c2ccccc2)CC1
  17% | -16 | 15% | 7.3%
O=C1c2ccccc2NC(c2ccccc2)N1c1ccc(O)cc1 (stereo not given)
  -2% | 0 | -14% | 2.6%
C[C@H](NC(=O)c1nc[nH]c1C(=O)NCc1ccccc1)c1ccccc1
  nt | nt | -6% | 0.3%
CCOC(=O)NNC(=O)C12CC3CC(CC(C3)C1)C2
  2% | 2 | 7% | -0.4%
CCC(C)[C@H](NC(=O)N1CCN(c2cccc(C(F)(F)F)c2)CC1)C(=O)OC (stereo not given in full)
  20% | 0 | -16% | -3.6%
CC1CN(C(=S)SCCN2C(=O)CCC2=O)CC(C)O1 (stereo not given)
  -1% | -10 | 0% | 1.8%
COc1cc(OC)cc(C(=O)NCCOc2ccccc2)c1
  -41% | 4 | 7% | 0.8%

Order of values – miR-21 reporter | GLA inh pH 4.5 | Rango release inh | Rango-impB inh
COc1ccccc1NC(=S)N1CCCc2ccccc21
  -7% | 2 | 7% | 0.0%
CCCCn1c(N)c(N(CC)C(=O)CCc2ccccc2)c(=O)[nH]c1=O
  -5% | 1 | -2% | -0.4%
N/C(=N\OC(=O)CN1C(=O)c2ccccc2C1=O)c1ccc(Br)cc1
  1% | -27 | 6% | 1.1%
FC(F)(F)c1ccccc1NC(=S)Nn1cnnc1
  0% | nt | -5% | -2.2%
O=C(Nc1ccc(NC(=O)c2cc3ccccc3o2)cc1)c1ccco1
  -17% | nt | -8% | -1.1%
CCn1ncc(/C=C/C(=O)Nc2c(C)nn(CC)c2C)c1C
  -5% | 1 | -10% | 2.3%
COc1ccc(C(CNC(=O)c2cccc3cccnc23)N(C)C)cc1 (stereo not given)
  0% | nt | -8% | -4.2%
CCOc1ccc(CNC(=O)CN2C(=O)CSc3ccc(S(=O)(=O)N4CCOCC4)cc32)cc1OC
  -1%&1% | nt | 18% | 2.9%
CC(=O)c1cccc(NC(=O)CSc2nnc(-c3ccc(S(=O)(=O)N4CCCC4)cc3)o2)c1
  1% | 1 | -7% | -1.0%
CC1CN(c2ccccc2)C(=O)CS1 (stereo not given)
  -2% | -3 | -16% | 3.3%

Order of values – miR-21 reporter | GLA inh pH 4.5 | Rango release inh | Rango-impB inh
O=C(O)c1ccccc1S(=O)(=O)CC(=O)N1CCCCC1
  2% | nt | 2% | -3.6%
O=S1(=O)NC(CC2=CCCCC2)C2CCCCC2O1 (stereo not given)
  0% | nt | -8% | -1.1%
COc1ccc(/C=C2\SC(=O)N(CCC(=O)N(C)C3CCS(=O)(=O)C3)C2=O)cc1 (stereo not given)
  -3% | nt | 2% | 1.7%
O=C(/C=C/c1ccco1)Oc1cc(Br)cc(/C=N/NC(=O)c2ccccc2O)c1
  -11% | 1 | ? | ?
CCOC(=O)c1c(NC(=O)C2CC(Cl)=CCC2C(=O)O)sc2c1CCCCC2 (stereo not given)
  1% | nt | -1% | 0.8%
O=C(CC1(O)C(=O)N(Cc2ccccc2Cl)c2ccccc21)c1ccco1 (stereo not given)
  18% | -5 | -7% | -1.7%
CN(C(=O)CSc1nnc(C2CC2)n1C)C1CCCc2ccccc21 (stereo not given)
  nt | nt | -2% | 7.1%
COc1ccccc1OC(=O)c1ccc(SC)cc1OC
  -20% | -4 | 6% | -2.5%
COc1cc(CNCCNC(=O)c2nonc2N)ccc1OCc1ccc(Cl)cc1
  -7% | -13 | 7% | -0.7%
CC1CCN(S(=O)(=O)c2cc(C(=O)Nc3ccccn3)ccc2Br)CC1
  nt | nt | -14% | -1.4%

structure	miR-21 reporter	GLA inh pH 4.5	Rango release inh	Rango-impB inh
Cc1cc(-c2nnc(CCC(=O)N(C)CCc3ccccc3)o2)no1	-26%	-4	7%	-1.6%
CCN(C(=O)COC(=O)c1cc(S(=O)(=O)N2CCOCC2)c(Cl)cc1Cl)C1CCS(=O)(=O)C1 (stereo not given)	2%	5	0%	-1.7%
CN[C@@H]1CC[C@H](c2ccc(Cl)c(Cl)c2)c2ccccc21	nt	nt	14%	-1.2%
CNS(=O)(=O)c1cccc(C(=O)NCC(C)(C)N2CCCCC2)c1	0%	nt	3%	2.8%
Nc1c(C(=O)Nc2ccccc2F)sc2nc(-c3cccnc3)ccc12	-21%	7	?	?
Cn1c(=O)c2c(nc3n2CC(COc2ccc(Cl)cc2)O3)n(C)c1=O (stereo not given)	3%	nt	0%	-1.2%
COc1ccc(C(=O)NNC(=O)CSc2nnc(C)n2C)cc1	1%	-9	4%	0.3%
OCC1(Cc2ccccc2C(F)(F)F)CCN(Cc2ccc3c(c2)CCO3)CC1	-7%	2	17%	0.6%
Cc1ccn2cc(CCNC(=O)C3CCCCC3)nc2c1	-9%	11	-10%	2.9%
CCCOc1ccc(/C=N/NC(=O)CN(c2ccc(OCC)cc2)S(C)(=O)=O)cc1	-5%	-10	0%	-2.7%

structure	miR-21 reporter	GLA inh pH 4.5	Rango release inh	Rango-impB inh
CCSc1nnc(NC(=O)CCc2ccc(OC)cc2)s1	-8%	6	3%	4.0%
NC(=O)N1CCC2(CC1)NC(=O)N(c1ccccc1)N2	7%	6	-4%	0.4%
CCN(CC)C(=O)C(=O)c1cccn1-c1cccc(-n2cccc2C(=O)C(=O)N(CC)CC)c1C#N	1%	3	10%	3.3%
CCn1c(=O)cc(OCC(=O)NCCCN2CCCC2=O)c2ccccc21	0%	nt	-4%	0.8%
Cc1ccnc(Nc2nc3ccccc3o2)n1	19%	-2	-6%	4.2%
CC(=O)c1ccc(N2C(=O)C3C4C=CC(CC4)C3C2=O)cc1 (stereo not given)	-8%	nt	-13%	-1.5%
Cn1c(SCC(=O)Nc2ccc(F)cc2)nc2c(c1=O)SCC2	11%	nt	-6%	-1.0%
Cc1ccc(C)c(C(=O)Nc2cc(C)nn2-c2nc(C)cc(C)n2)c1	-5%	-23	3%	-5.1%
CCCN(C(=O)c1cccs1)c1nnc(-c2ccncc2)s1	-22%	2	-5%	2.0%
CC1CN(S(=O)(=O)c2cccc(C(=O)N(CCc3ccccc3)Cc3ccccc3)c2)CC(C)O1 (stereo not given)	nt	nt	12%	-0.2%

Laid out differently: entries from further up.
> CC1CN(S(=O)(=O)c2cccc(C(=O)N(CCc3ccccc3)Cc3ccccc3)c2)CC(C)O1 (stereo not given)
  miR-21 reporter: nt; GLA inh pH 4.5: nt; Rango release inh: 12%; Rango-impB inh: -0.2%

> CCN(CC)C(=O)C(=O)c1cccn1-c1cccc(-n2cccc2C(=O)C(=O)N(CC)CC)c1C#N
  miR-21 reporter: 1%; GLA inh pH 4.5: 3; Rango release inh: 10%; Rango-impB inh: 3.3%

> CCSc1nnc(NC(=O)CCc2ccc(OC)cc2)s1
  miR-21 reporter: -8%; GLA inh pH 4.5: 6; Rango release inh: 3%; Rango-impB inh: 4.0%

The results go on:
structure	miR-21 reporter	GLA inh pH 4.5	Rango release inh	Rango-impB inh
CC1CCCN(CC(O)COc2ccc3c(c2)OCO3)C1 (stereo not given)	2%	0	4%	3.0%
CN(C)c1ccc(NC(=O)c2ccc([N+](=O)[O-])cc2Cl)cc1	-60%	-8	14%	2.1%
COc1ccc(CC(=O)Nc2ccc(S(=O)(=O)Nc3nc(C)cc(C)n3)cc2)cc1	-2%	8	-9%	-1.9%
COC(=O)CCCC(=O)N(C)CC1CCCN(CCc2ccccc2C)C1 (stereo not given)	nt	nt	-2%	-3.3%
CC1CC(C)(C)NC(=S)N1CCC(=O)N1CCN(c2ccccc2)CC1 (stereo not given)	-4%	0	0%	0.5%
CC(C)c1ccc(NC2CCCN(C(=O)c3cccc4nccnc34)C2)cc1 (stereo not given)	-3%	nt	-7%	-4.5%
Cc1ccc(C(OCCN(C)C)c2cccc(C(F)(F)F)c2)cc1 (stereo not given)	-1%	-13	1%	1.3%
CCSc1nnc(NC(=O)NC2CCCCC2)s1	-57%	3	5%	1.7%
COCCOC(=O)c1c(C)oc2ccc(OC(=O)c3ccco3)cc12	-45%	-5	-6%	1.5%
O=C(CCCCN1CCCCC1)c1ccc2c(c1)Cc1ccccc1-2	-4%	6	0%	-2.2%

structure	miR-21 reporter	GLA inh pH 4.5	Rango release inh	Rango-impB inh
N=c1n(CC(=O)c2ccc([N+](=O)[O-])cc2)c2ccccc2n1Cc1ccccc1Cl	0%	5	0%	0.7%
CN1CCN(C(=O)c2cnn(-c3ccccc3)c2NC(=O)c2ccccc2)CC1	1%	8	-17%	?
c1coc(-c2nnc(-c3ccco3)nn2)c1	-41%	nt	-1%	?
COc1cccc(OCCNC(=O)Nc2cc(F)c(F)cc2Cl)c1	0%	?	-8%	-2.3%
C[C@@H]1CC=C[C@H]2[C@H]1C(=O)N(Cc1ccccc1)[C@H]2c1ccc2ccccc2c1/C=C/c1ccccc1	-2%	-8	28%	3.2%
CC1=CC(C)C2C(=O)N(CCCN(C)C)C(=O)C2C1 (stereo not given)	-7%	-15	13%	3.5%
CCC(=O)OCc1c(C(F)(F)F)nn(C)c1Oc1cccc(C(F)(F)F)c1	2%	-27	12%	3.1%
CC(=O)c1cc2c(cc1N(C(=O)Cn1nnc3ccccc31)C(C(=O)NCCC(C)C)c1cccnc1)OCO2 (stereo not given)	0%	2	-5%	2.3%
COc1ccc2c(c1)Cc1sc(NC(=O)c3ccccc3)nc1-2	-20%	2	-10%	-0.8%
COc1ccc(C2=NS(=O)(=O)N(C)C(C(=O)N(C)Cc3ccccc3)=C2)cc1OC	2%&-35%	nt	?	?

Reformatted with the structure last: entries from further up
miR-21 reporter | GLA inh pH 4.5 | Rango release inh | Rango-impB inh | structure
1% | 8 | -17% | ? | CN1CCN(C(=O)c2cnn(-c3ccccc3)c2NC(=O)c2ccccc2)CC1
2%&-35% | nt | ? | ? | COc1ccc(C2=NS(=O)(=O)N(C)C(C(=O)N(C)Cc3ccccc3)=C2)cc1OC
2% | -27 | 12% | 3.1% | CCC(=O)OCc1c(C(F)(F)F)nn(C)c1Oc1cccc(C(F)(F)F)c1

(more compounds)
structure	miR-21 reporter	GLA inh pH 4.5	Rango release inh	Rango-impB inh
O=C(O)c1ccc(Cn2cc(/C=C\[N+](=O)[O-])c3ccccc32)o1	-1%	nt	-4%	-6.9%
CCc1cc(CNC(=O)c2ccc(OC)c(OC3CCN(C(C)C)CC3)c2)on1	-3%	nt	7%	-3.3%
Cc1ccc(S(=O)(=O)NCCCCCC(=O)Nc2nccs2)cc1	10%	-5	8%	0.0%
CN1CC(=O)N(CC(=O)NCCc2ccc(F)cc2)c2ccccc2C1=O	-1%	-3	3%	2.7%
COc1cccc(-c2nc3n(n2)C(c2ccc4c(c2)OCO4)C(C(N)=O)=C(C)N3)c1 (stereo not given)	-15%	-17	-10%	-0.3%

Screening data from PubChem.

These rows are one share of the data; rates above refer to the full screens.
